# High-throughput results (PubChem BioAssay)
# GALR2 ag – GALR2 (human) receptor agonism; AID 803; GALR2-expressing cells, agonist activation read-out; actives 0.48% (n = 140,000); activation, %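 (tested at 5 µM)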;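 active = above mean plus 3 SD of all compounds, about 5% in these data, not always enough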;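 note: 0% = vehicle buffer wells and 100% = reference agonist at full effect; tested in CHO reporter cells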
# Target sequence (O43603 whole entry, looked up): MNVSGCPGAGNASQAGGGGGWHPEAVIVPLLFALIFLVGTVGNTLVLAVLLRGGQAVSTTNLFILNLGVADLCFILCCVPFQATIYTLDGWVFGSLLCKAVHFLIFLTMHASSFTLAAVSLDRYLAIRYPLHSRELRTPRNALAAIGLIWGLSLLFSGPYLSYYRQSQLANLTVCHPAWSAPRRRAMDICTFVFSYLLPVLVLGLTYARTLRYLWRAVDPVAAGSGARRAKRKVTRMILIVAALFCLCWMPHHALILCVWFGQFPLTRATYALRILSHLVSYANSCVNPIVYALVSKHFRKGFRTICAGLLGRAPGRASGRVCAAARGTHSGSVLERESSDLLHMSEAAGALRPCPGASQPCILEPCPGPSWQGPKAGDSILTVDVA
# RGS16-Gao HTS – modulates binding between human RGS16 and Galphao; O15492+P09471; bead-based flow cytometry RGS16-Galphao binding, fluorescence; actives lie on both sides; binding response (% of control), % at 10 µM; actives 0.38% (n = 220,000); AID 1441;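 active = below 25% or above 175%, edge rows of some plates excepted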;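 note: Galphao activated by GDP with aluminum fluoride before binding; 100% = wells without compound and 0% = beads without RGS; some results beyond the cut were filed as inactive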
# Target sequence (O15492 whole entry, looked up): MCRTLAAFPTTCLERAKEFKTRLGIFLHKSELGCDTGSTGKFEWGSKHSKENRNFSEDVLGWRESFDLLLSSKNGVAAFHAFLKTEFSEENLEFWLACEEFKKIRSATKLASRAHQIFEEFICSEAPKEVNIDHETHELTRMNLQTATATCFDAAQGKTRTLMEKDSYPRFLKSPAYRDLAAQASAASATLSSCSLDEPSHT
# Target sequence (P09471 whole entry, looked up): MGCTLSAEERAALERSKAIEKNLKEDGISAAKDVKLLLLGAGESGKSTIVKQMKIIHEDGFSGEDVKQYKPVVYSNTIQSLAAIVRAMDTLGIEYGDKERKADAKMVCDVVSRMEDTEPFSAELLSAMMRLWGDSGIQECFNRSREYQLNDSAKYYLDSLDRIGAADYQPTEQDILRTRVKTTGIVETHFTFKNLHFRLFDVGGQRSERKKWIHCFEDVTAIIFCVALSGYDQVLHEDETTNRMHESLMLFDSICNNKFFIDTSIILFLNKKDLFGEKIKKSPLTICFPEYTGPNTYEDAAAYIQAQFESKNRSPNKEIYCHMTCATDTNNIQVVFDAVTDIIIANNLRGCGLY
# PKD1 kinase inh – inhibitors of human PKD1 kinase. PKD1 kinase fluorescence polarization assay. inhibition, %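 (about 10 µM by stock and volumes)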. actives 0.056% (n = 200,000). Q15139. AID 797;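 active = inhibition of 50% or more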;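 note: controls were vehicle for no effect and a reference inhibitor for full effect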
# INS promoter inh – TRM-6 insulin promoter activity inhibition. inhibition, % at 2 µM. TRM-6 cells (human fetal islet line), insulin promoter-eGFP reporter, imaging; reporter expression induced with tamoxifen. AID 1273. actives 0.9% (n = 130,000);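 active = inhibition above the mean plus 3 SD, with well images judged a real hit on visual review, cut at about 60% in these data, passing the limit was not always enough; inconclusive = inhibition over the cutoff but images rejected on review; inactive = inhibition not above the cutoff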
# HSV replic up – HSV replication enhancement; actives 0.005% (n = 220,000); HSV replication augmentation in cells, fold increase; maximum fold increase;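 active = peak rise of 1.5-fold or more in the series; inconclusive = self-fluorescent or not available for retest; tested in PC3 cells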;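 note: first round at 10 µM; read as green reporter fluorescence; hits show the peak of a series up to 25 µM; 1 = signal of infected wells without compound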
# INS promoter inh cell count – recorded beside INS promoter inh, whose call it bears; normalized cell count, %; measured here: cell count, toxicity; reference of the scale not given here;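 cells exposed to compound for 48 h; stained nuclei by imaging scaled within each plate; lower means fewer cells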
# HSV replic up primary fold – second read-out of HSV replic up, no call of its own (marks repeat the call); fold increase; compound at 10 µM; measured here: primary screen fold increase 10 uM; tested in PC3 cells;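 GFP signal in the first replicate; 1 = infected wells without compound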
# An asterisk follows results filed as active; i = inactive; u = inconclusive; x = no result given.
SMILES,GALR2 ag,RGS16-Gao HTS,PKD1 kinase inh,INS promoter inh,INS promoter inh cell count,HSV replic up,HSV replic up primary fold
CC(NC(=S)NNS(=O)(=O)c1ccc(C(C)(C)C)cc1)c1ccccc1 (stereo not given),x,104,x,x,x,i,0.92
O=C(COc1ccc(Br)cc1)Nc1cc(S(=O)(=O)N2CCCCC2)ccc1N1CCCCC1,-2.0,105,-4,19,109,i,1
Cc1ccc(Oc2nn[nH]n2)cc1,-1.6,98,2,-47,124,i,1.1
COc1cc(C(=O)NCc2cn3cccc(C)c3n2)cc(OC)c1OC,-4.2,102,-15,x,x,i,0.92
NC(=O)CC1SC(N)=NC1=O (stereo not given),-1.0,102,4,-51,97,i,0.96
Nc1cc(OC(=O)c2cccs2)nn1S(=O)(=O)c1ccccc1,-2.1,98,0,x,x,i,0.93
O=C(CN1C(=O)NC2(CCSC2)C1=O)N1CCN(c2ccc(F)cc2)CC1 (stereo not given),-0.5,x,-3,8,91,i,1.1
Cc1cc(C)nc(SC(C)CNS(=O)(=O)c2ccccc2)n1 (stereo not given),x,95,-2,x,x,i,0.98
CCOc1ccc(NC(=O)NCc2ccco2)cc1,x,106,-7,x,x,i,0.87
O=S(=O)(Cc1ccccc1)Nc1ccc(S(=O)(=O)NCC2CCCO2)cc1 (stereo not given),-2.7,105,-7,0,85,i,0.87
COc1cccc(C(=O)Nc2ccc(N3CCN(S(C)(=O)=O)CC3)cc2)c1,-0.5,102,-2,-34,101,i,0.88
COc1ccc(NC(=O)CSc2nc3c(c(=O)n2-c2ccccc2OC)SCC3)cc1,-1.3,108,-1,x,x,i,0.82
Cc1ccc(N2C(=O)c3ccccc3C2Nc2ccc(S(=O)(=O)N3CCOCC3)cc2)nc1 (stereo not given),-4.0,98,-16,x,x,i,0.6
CCOC(=O)CCCSc1nc2sc3c(c2c(=O)[nH]1)CCC3,-2.7,100,-2,-9,124,i,0.86
CCNC(=O)CN(CCc1ccccc1)S(=O)(=O)c1ccc(OC)cc1,0.2,107,-12,-8,82,i,1
CCCCNC(=O)NNC(=O)c1ccoc1C,0.2,105,-3,x,x,i,0.84
COc1ccc(C)cc1-n1nnnc1SCc1nc2ccccc2c(=O)[nH]1,x,99,-6,x,x,i,0.97
Cc1ccc(N2C(=O)C3C4C=CC(CNC(=S)Nc5ccc(F)cc5)(O4)C3C2=O)cc1 (stereo not given),-1.1,43,-16,46,70,i,1
Cc1ccn(C(=O)c2ccc(NC(=O)C3CCCCC3)cc2)n1,-1.6,100,-17,-407,72,i,1
CCN(C(=O)Cc1cccs1)c1nnc(-c2cc(OC)c(OC)c(OC)c2)s1,1.5,99,-3,-53,104,i,0.99
COc1c(Cl)cnn(-c2ccccc2)c1=O,-1.3,109,-7,17,95,i,0.87
CSc1nc(N)nc(-c2cccs2)c1C#N,0.6,90,0,-9,132,i,0.97
Cc1ccc(F)cc1NCC(=O)Nc1ccc(Cl)cc1F,-0.9,107,-3,x,x,i,1
COc1ccc(NC(=O)Cn2c(=O)n(CC(=O)NCc3ccco3)c(=O)c3ccccc32)cc1,-4.5,101,-3,-7,136,i,0.79
O=C(CSc1nc2ccccc2[nH]1)N1CCCCC1,-2.6,103,-3,27,94,i,1.1
O=c1[nH]cnc2c1sc1nc3c(c(-c4ccc(Cl)cc4)c12)CCC3,-0.8,110,5,2,94,i,0.83
Cc1ccc(N(Cc2ccco2)C(=O)c2cccc(S(=O)(=O)N(C)C)c2)cc1,0.4,101,3,-10,101,i,0.86
COc1ccc(Oc2nnc(-c3ccccc3)cc2C#N)cc1,-0.5,97,0,3,142,i,0.92
O=C1CC(N2CCN(C/C=C/c3ccccc3)CC2)C(=O)N1Cc1cccs1 (stereo not given),-4.1,99,-7,-39,126,i,1.1
CCN(C(=O)c1cc(Cl)ccc1OC)c1ccccc1,-2.5,102,-2,-39,174,i,0.92
CCOc1ccc(N(CC(=O)Nc2cccc(OC)c2)S(=O)(=O)c2c(C)noc2C)cc1,-0.8,112,-1,x,x,i,1.1
COc1ccc(-n2nc(C)c3onc(C)c3c2=O)cc1,x,99,x,x,x,i,0.95
O=C(c1ccco1)N1CCN(c2nc(-c3ccc(F)cc3)cs2)CC1,-0.7,99,1,40,100,i,0.89
COC(=O)c1ccc(OCc2cc(=O)n3ccsc3n2)cc1,-0.6,103,-4,-29,121,i,1
O=[N+]([O-])C(=c1ccc2c(c1)N1C3=C(CCCC3)CC3CCCCC31N=2)[N+](=O)[O-] (stereo not given),x,21*,x,x,x,i,1.1
Cc1ccc(/C=N/NC(=O)Cn2nc(C)c(Br)c2C)o1,-3.4,103,1,-47,112,i,0.89
CCC(=O)N(Cc1ccco1)Cc1cc2cccc(C)c2n2nnnc12,x,95,-2,x,x,i,1
CCN1CCN(CCOc2ccc(Cl)cc2)CC1,x,108,9,x,x,i,0.99
CCOc1ccccc1CNc1ccc(O)cc1,x,98,-12,-55,108,i,0.88
CCOC(=O)C1CCCN(CCC(=O)Nc2cc(C)cc(C)c2)C1 (stereo not given),x,106,3,60,74,i,0.93
COc1ccccc1C(OC(=O)c1ccco1)C(=O)NC(C)(C)C (stereo not given),-1.2,100,3,57,141,i,0.88
[O-]/C(=C(\C(=S)Nc1ccc(SC(F)F)cc1)[n+]1ccccc1)c1ccc(Cl)cc1Cl,x,104,-1,-26,114,i,0.92
CC1CCCCC1NC(=O)CSc1nnc(COc2ccccc2Cl)o1 (stereo not given),-1.0,101,-2,x,x,i,0.81
COc1ccc(N2CCN(CCCNC(=O)CN3CCN(Cc4ccccc4C)C3=O)CC2)cc1,-0.8,103,-16,x,x,i,0.97
Cc1cc(NC(=O)c2cccs2)n(-c2ccccc2)n1,5.4,118,-5,-4,98,i,0.93
OCCNCc1cc(Br)ccc1OCc1ccccc1Cl,-1.2,100,-8,x,x,i,0.78
COc1ccc(C(=O)NC(CO)c2nnc(SCc3ccc(Cl)c(Cl)c3)n2C)cc1 (stereo not given),-2.9,101,-6,46,76,i,0.92
Cc1ccc(NC2OC(C(O)CO)C(O)C2O)cc1[N+](=O)[O-] (stereo not given),-1.0,100,-1,12,95,i,0.94
COc1ccccc1-c1nnc(SCC(=O)N2CC(C)CC(C)C2)o1 (stereo not given),2.0,98,-2,-24,101,i,0.82
O=C(N/N=C(\CC(=O)c1cccs1)C(F)(F)F)c1ccncc1,x,95,x,x,x,i,1.1
COc1ccc(/C=C/C(=O)NC(=S)Nc2ccc(S(N)(=O)=O)cc2)cc1,x,95,x,x,x,i,0.83
COc1ccc(C(=O)CN2C(=O)C(C)(C)Oc3ccc(C(=O)N4CCCCCC4)cc32)cc1,-1.0,101,32,14,95,i,1
COC(=O)c1ccc(COc2ccc(-c3nnn(CC(=O)NC(C)(C)C)n3)cc2)cc1,-0.8,99,-3,0,160,i,0.56
Cc1ccccc1NC(=O)N1CCN(S(=O)(=O)c2ccccc2)CC1,x,93,8,x,x,i,0.9
COc1cccc(NC(=O)COC(=O)COc2ccccc2[N+](=O)[O-])c1,-0.6,97,-10,-86,46,i,0.98
Oc1oc(-c2ccccc2Br)nc1C=Nc1ccc(Br)cn1,x,110,-4,-57,136,x,x
O=C(c1ccccc1Oc1ccccc1)N1CCN(c2ccccc2)CC1,-2.3,102,-8,0,99,i,1.1
CCOC(=O)c1cc(NC(=O)c2cnccn2)cc(C(=O)OCC)c1,-0.7,103,-5,20,106,i,0.9
COc1ccc(Oc2ccc(N/C=C3/CCCC3=O)cc2)cc1,-1.3,97,-14,-31,73,i,1
Cc1ccc(CSc2nn3c(=O)c(C)nnc3s2)cc1,0.2,100,-1,x,x,i,0.97

# Some entries already given, limited to PKD1 kinase inh:
Molecule | PKD1 kinase inh
COc1ccc(NC(=O)CSc2nc3c(c(=O)n2-c2ccccc2OC)SCC3)cc1 | -1
Cc1ccc(N2C(=O)c3ccccc3C2Nc2ccc(S(=O)(=O)N3CCOCC3)cc2)nc1 (stereo not given) | -16
CCOC(=O)CCCSc1nc2sc3c(c2c(=O)[nH]1)CCC3 | -2
CCNC(=O)CN(CCc1ccccc1)S(=O)(=O)c1ccc(OC)cc1 | -12
CCCCNC(=O)NNC(=O)c1ccoc1C | -3
COc1ccc(C)cc1-n1nnnc1SCc1nc2ccccc2c(=O)[nH]1 | -6
Cc1ccc(N2C(=O)C3C4C=CC(CNC(=S)Nc5ccc(F)cc5)(O4)C3C2=O)cc1 (stereo not given) | -16

# Carrying on:
SMILES,GALR2 ag,RGS16-Gao HTS,PKD1 kinase inh,INS promoter inh,INS promoter inh cell count,HSV replic up,HSV replic up primary fold
COc1ccc(-n2c(SCC(=O)Nc3cc(C)on3)nc3ccccc3c2=O)cc1Cl,x,101,-2,x,x,i,0.91
Cc1cccc(-n2nnnc2SCC(=O)N(CC(C)C)c2c(N)n(CC(C)C)c(=O)[nH]c2=O)c1,x,101,1,x,x,i,1
O=C(COC(=O)c1nc(Cl)ccc1Cl)c1ccc(Cl)s1,-0.6,100,4,x,x,i,0.94
Cc1no[n+]([O-])c1COc1ccc(/C=C(\C#N)C(N)=O)cc1,-0.4,107,-4,-62,139,i,0.94
COc1cc(OC)c(OC)cc1/C=N/n1c(-c2n[nH]c3c2CCC3)n[nH]c1=S,x,92,x,x,x,i,1.1
COc1cccc(CN(Cc2ccco2)S(=O)(=O)c2ccc(S(=O)(=O)NCc3ccccc3)cc2)c1OC,-0.6,82,-3,-38,122,i,0.82
COc1ccc(Cc2nc(-c3cccc(C)c3)no2)cc1,-2.1,82,-4,-7,151,i,1.1
Cc1ccc(CNC(=O)c2ccc[nH]2)cc1,x,99,-6,0,85,i,0.98
Fc1ccccc1NC(=S)NNc1ncc(C(F)(F)F)cc1Cl,-3.0,100,2,x,x,x,x
O=S(=O)(c1cccs1)N1CN(Cc2ccco2)c2nc3ccccc3nc21,x,107,x,x,x,u,x

# One compound at a time (already shown). Values in the order: GALR2 ag | RGS16-Gao HTS | PKD1 kinase inh | INS promoter inh | INS promoter inh cell count | HSV replic up | HSV replic up primary fold
# `COc1ccc(-n2c(SCC(=O)Nc3cc(C)on3)nc3ccccc3c2=O)cc1Cl` as listed: x | 101 | -2 | x | x | i | 0.91
# `Cc1no[n+]([O-])c1COc1ccc(/C=C(\C#N)C(N)=O)cc1` as listed: -0.4 | 107 | -4 | -62 | 139 | i | 0.94

# Arranged by value in GALR2 ag (rising): three from the list above.
Compound	GALR2 ag
COc1ccc(C(=O)NC(CO)c2nnc(SCc3ccc(Cl)c(Cl)c3)n2C)cc1 (stereo not given)	-2.9
Cc1ccc(N2C(=O)C3C4C=CC(CNC(=S)Nc5ccc(F)cc5)(O4)C3C2=O)cc1 (stereo not given)	-1.1
CCOC(=O)c1cc(NC(=O)c2cnccn2)cc(C(=O)OCC)c1	-0.7

# The order is random; 1.3% or so of the library scored in one or more.
